NPYLR7 ag: activates Aedes aegypti NPYLR7 receptor | activation, % at 10 µM | actives 0.15% (n = 270,000) | HEK293T NPYLR7/Galpha15, GCaMP6s calcium fluorescence; in the data active = activation above about 40%;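 also: 0% = vehicle and 100% = reference agonist at the receptor; some compounds past the cut are filed as inactive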
NPYLR7 ag max-min: second read-out of NPYLR7 ag, no call of its own (marks repeat the call); activation, %; measured here: Max-Min RFU normalised activation; some inactives read as strong as hits;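 span of the calcium signal over five minutes; 0% = vehicle and 100% = native peptide agonist; compound fluorescence can raise it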
The depositor's hits bear a star; & = joins results of further samples.

Order of results – NPYLR7 ag	NPYLR7 ag max-min
1: COc1ccccc1NC(=O)N(CC(=O)N(Cc1ccc(F)cc1)Cc1sccc1C)C(C)C
    -15	-10
2: Cc1cc(-n2c(C)cc(CNC(C)c3cccs3)c2C)no1 (stereo not given)
    1	0
3: CCN(CC)C(=O)c1cccc(NC(=O)c2ccc(C)o2)c1
    -6	-7
4: COc1cc(N=c2scc(-c3ccccc3)n2C(C)Cc2c[nH]c3ccccc23)cc(OC)c1 (stereo not given)
    10	7
5: Cc1nc(-n2nc(-c3ccco3)cc2NC(=O)c2cc(=O)c3ccccc3o2)[nH]c(=O)c1C
    1	-1
6: COc1ccccc1-c1ccc2c(c1)COC1(CCN(C(=O)Cc3ccc(F)cc3F)CC1)O2
    -6	-17
7: Cc1nc2c(=O)n(CC(N)=O)nc(-c3ccc(F)cc3)c2s1
    2	-2
8: CCCNc1cc(C(C)(C)C)nc2c(-c3ccccc3)c(C)nn12
    -4	-7
9: CC1(C(=O)NS(=O)(=O)c2cccc(F)c2)CCN1C(=O)C1(c2ccc(Cl)cc2)CC1 (stereo not given)
    -1	-2
10: CCOC(=O)Cn1c2[n+](c3ccccc31)CC(O)CS2 (stereo not given)
    4	1
11: CCC(CC)n1nc(C)cc1NC(=O)C(C)Cn1cncn1 (stereo not given)
    0	3
12: Cc1cccnc1C(NC(=O)C1CCN(Cc2cccc(Cl)c2)CC1)c1ccccc1 (stereo not given)
    9	-2
13: Cc1cc(C)nc(N=C2NC(=O)CC(C(=O)O)N2c2ccc(Oc3ccccc3)cc2)n1 (stereo not given)
    0	18
14: O=C(c1cc(COc2ccc(-n3cncn3)cc2)on1)N1CCc2c(Cl)cccc2C1
    4	-1
15: CCc1cnc(N2CC3ON=C(c4ccccc4C)C3C2)nc1 (stereo not given)
    2	0
16: CCCCN(C(=O)C=Cc1ccco1)c1c(N)n(CCC)c(=O)[nH]c1=O
    -3	-4
17: COC(=O)c1[nH]c(Cn2cc(C(F)(F)F)cc(Cl)c2=O)c(C(=O)OC)c1C
    11	7
18: CN(CC1COc2ccccc2O1)S(=O)(=O)c1ccc(Br)s1 (stereo not given)
    -1	-2
19: Cc1ncc(CN(C)Cc2ccc(-n3cccn3)cc2)n1C
    5	2
20: COc1ccc(Cc2nccc3cc(OC)c(OC)cc23)cc1OC
    -4&-2&-9&3	-9&1&-14&7
21: O=C(CN1CCc2sccc2C1c1ccccc1)N1CCN(S(=O)(=O)c2ccccc2)CC1 (stereo not given)
    14	9
22: CN(Cc1ccccc1Cl)C(=O)c1ccc(NC(=O)c2ccco2)s1
    8	3
23: COCCN(CC(=O)N(CCc1ccccc1)Cc1ccc(C)o1)Cc1ccc(Cl)cc1Cl
    8	10
24: CN(Cc1ccc2nonc2c1)C(=O)C1CCC(=O)N(CCCN2CCOCC2)C1 (stereo not given)
    -9	-11
25: CN(CCc1ccccn1)S(=O)(=O)c1cc2oc(=O)[nH]c2cc1Cl
    0	-2
26: CC(=O)Nc1ccc(CN2C(=O)C(C)ON=C2c2cccs2)cc1 (stereo not given)
    5	2
27: CCN(C(=O)Cn1cnc(C)cc1=O)c1ccccc1
    17	12
28: O=c1ccc(-c2cccs2)nn1CCNS(=O)(=O)c1ccccc1F
    -1	-4
29: N#Cc1c(-c2ccccc2)cc(-c2ccccc2)nc1SC(C(=O)O)c1ccccc1 (stereo not given)
    -4	-8
30: O=C(O)c1cccc(N=Cc2nc(-c3ccccc3Br)oc2O)c1
    -2	-4
31: COCC(=O)Nc1nc2cc(C(F)(F)F)ccc2n1Cc1ccco1
    3	10
32: Cc1c(S(=O)(=O)CCNC(=O)Nc2ccccc2)c2ccccc2n1C
    2	5
33: Cc1ccc(Cl)cc1NC(=O)N1CCCCC1CO (stereo not given)
    -1	0
34: O=C(CCN(Cc1ccccc1)c1nc(-c2cccc(Br)c2)nc2ccccc12)N1CCOCC1
    7	11
35: Cc1ccc(C(O)=C2C(=O)C(=O)N(CCN(C)C)C2c2ccncc2)cc1 (stereo not given)
    3	3
36: Cc1ccccc1Cn1ccnc1CN(CC(C)C)C(=O)C(C)C
    11	16
37: O=C(Nc1ccc(F)c(F)c1F)N1CCN(C(c2ccccc2)c2ccc(Cl)cc2)CC1 (stereo not given)
    8	1
38: CC(C)Cn1c(CN2CCNC(=O)C2(C)C)cnc1S(=O)(=O)Cc1ccccc1
    20	9
39: CCCCCOc1ccc(C(=O)NCCc2cccnc2)cc1OCCCCC
    -16	-27
40: COC(=O)c1cc(NC(=O)c2c(-c3ccccc3Cl)noc2C)cc(C(=O)OC)c1
    -11	-15
41: O=C(Nc1cccc(-n2cccn2)c1)C1CCCN(Cc2nccs2)C1 (stereo not given)
    0	-3
42: CC1=C(C(=O)Nc2ccccc2)C(c2ccccc2Cl)N2C(CC(=O)O)=CSC2=N1 (stereo not given)
    24	12
43: NC1=NC(=Nc2ccc(Br)cc2)c2ccccc21
    4	1
44: CCc1cnc(CN(C(C)=O)C2CCN(C(C)c3cccnc3)C2)o1 (stereo not given)
    4	4
45: Cc1ccc(C=C2SC(=S)N(c3ccc(S(N)(=O)=O)cc3)C2=O)o1
    4	-3
46: COc1ccc(NC(=O)C(C)N2CCN(c3cc(C)nc(C(C)C)n3)CC2)cc1Cl (stereo not given)
    2	18
47: COCC(=O)Nc1ccc(N2CCN(C(=O)c3cccc(C)c3C)CC2)nc1
    -2	9
48: COC(=O)c1ccc(CSc2c(C)cnc3c2c(=O)n(C)c(=O)n3C)o1
    -8	-4
49: Cc1nc(-c2ccccc2)sc1C(=O)NCCn1nc(-c2ccc(F)cc2)ccc1=O
    0	-1
50: O=C(NCc1nc(C2CC2)no1)N1CCCC1CN1CCCC1 (stereo not given)
    1	1
51: COC(=O)C1=C(C)NC2=C(C(=O)CCC2)C1c1ccc(OC)cc1 (stereo not given)
    -11	-13
52: CCOC(=O)C1=C(C)N=c2s/c(=C\c3ccccc3OCc3ccccc3Cl)c(=O)n2C1c1ccccc1 (stereo not given)
    -7	-1
53: c1cncc(-c2nccn2-c2ccc(-c3nc4ccccc4[nH]3)cc2)c1
    1	-2
54: CCC(C)NC(=O)CSc1nnnn1-c1ccc(OC)cc1 (stereo not given)
    -1	-6
55: CC(CC(=O)O)Nc1ccc(Cl)c2cccnc12 (stereo not given)
    10	9
56: CCCCCN1CC2=C(C1=O)C(c1ccccc1OC)NC(=O)N2 (stereo not given)
    3	1
57: CS(=O)(=O)N1CCC(Oc2ccc(C(=O)N3CCNC(=O)CC3)cc2Cl)CC1
    8	7
58: CCN1CCN(C(c2ccc(F)cc2)c2c(O)cc(C)n(CC)c2=O)CC1 (stereo not given)
    7	0
59: CC(C)[C@H](CO)Nc1nc(Nc2cccc(Cl)c2)c2ncn(C(C)C)c2n1
    12	4
60: O=C(COc1ccc([N+](=O)[O-])cc1)N1CCN(S(=O)(=O)Cc2ccccc2)CC1
    -2	-3

More entries:
Order of results – NPYLR7 ag	NPYLR7 ag max-min
61: CN(Cc1cccc2ncccc12)Cc1cccc2nonc12
    19	4
62: CCCN(C(=O)COCc1ccccc1)C(CC)c1nc2ccccc2c(=O)n1-c1ccc(OCC)cc1 (stereo not given)
    9	10
63: CC(C)(C)c1ccccc1OCC(O)CN1C(=O)NC(C)(C2CC2)C1=O (stereo not given)
    11	7
64: CCn1nc(C(=O)N2CCN(c3ccccc3)CC2)c2c1CCN(C(=O)Cc1cscn1)C2
    7	1
65: O=C1/C(=C/c2ccc(O)cc2)SC(=S)N1C1CCS(=O)(=O)C1 (stereo not given)
    8	6
66: CC(C)CN1CCN(Cc2ccoc2)C(CCO)C1 (stereo not given)
    -1	-2
67: c1ccc(-c2ncn(CCc3csc(-c4ncccn4)n3)c2C2CC2)cc1
    -6	-7
68: Cc1cc(C(=O)N2CC(CCN3CCCC3=O)c3ccccc32)n[nH]1 (stereo not given)
    -23	-24
69: O=C(Nc1cccc(Cl)c1)NC1CCN(c2ccccc2C(=O)NCCc2cccs2)CC1
    -2	10
70: O=c1[nH]c(Nc2nc3ccccc3o2)nc2c(Cl)cc(Cl)cc12
    11	21
71: COc1ccc(C(=O)Cn2nc(-c3ccco3)c3sc(N4CCCCC4)nc3c2=O)cc1OC
    -2	-6
72: Cc1nc(CN2CCN(C(=O)C3CC4(CCNCC4)CN3)CC2)no1 (stereo not given)
    2	1
73: CCOc1ccc(-c2ccc(=O)n(CCCC(=O)Nc3cc(C)ccc3C)n2)cc1
    -6	-8
74: CCOCCOC(C)C(=O)Nc1n[nH]c(-c2ccc(C)s2)n1 (stereo not given)
    0	6
75: Cc1nc(Nc2cc(Cl)c(N)c(Cl)c2)c2c3c(sc2n1)CCC3
    17	13

2 of the compounds above, with one line to a screen:
[74] CCOCCOC(C)C(=O)Nc1n[nH]c(-c2ccc(C)s2)n1 (stereo not given)
[57] CS(=O)(=O)N1CCC(Oc2ccc(C(=O)N3CCNC(=O)CC3)cc2Cl)CC1

Assay by compound,74,57
NPYLR7 ag,0,8
NPYLR7 ag max-min,6,7

The list goes on.
Order of results – NPYLR7 ag	NPYLR7 ag max-min
76: O=C(c1ccc([N+](=O)[O-])cc1)N1CCCC(OCc2cccc(OC(F)(F)F)c2)C1 (stereo not given)
    -3	0
77: Cn1c(=O)n(Cc2ccc(F)cc2)c(=O)c2c1nc1n2CCCN1Cc1ccccc1
    6	8
78: COc1ccc(NC2=C(Sc3ccc(N)cc3)C(=O)N(Cc3ccco3)C2=O)c(OC)c1
    11	4
79: CCCCN(Cc1cccn1Cc1ccc(Br)cc1)C(=O)CN(CCCOC)C(=O)Nc1ccccc1C(F)(F)F
    -3	0
80: CC(C)CC(C(=O)NCc1cccc(F)c1)N1CC2=C(C1=O)C(c1ccccc1C(F)(F)F)NC(=O)N2C (stereo not given)
    11	25
81: CS(=O)(=O)c1ccc(-c2nccc3n[nH]c(Cc4ccc(F)cc4)c23)cc1
    17	10
82: Cc1noc(-c2ccncc2)c1C(=O)NCc1ccccn1
    4	7
83: Cc1ccc(C(NC(=O)C2CCN(S(=O)(=O)c3ccc4c(c3)OCCCO4)CC2)C2CC2)cc1 (stereo not given)
    15	11
84: S=c1nc(-c2ccc(Cl)cc2)[nH][nH]1
    -6	-6
85: CCn1c(C2CCN(C(=O)Cn3c(=O)oc4ccccc43)CC2)nn(C)c1=O
    32	22
86: O=C(Nc1ccc(F)c(F)c1)N1CCc2ccccc2C1c1ccc(F)cc1 (stereo not given)
    18	8
87: CCN(CC)C(=O)CN1CCC2(CC1)CC(=O)c1cc(OC)ccc1O2
    -9	-15
88: CC1CCCCN1c1nc2c(c(=O)[nH]1)C(C1CC=CCC1)C(C#N)C(=O)N2 (stereo not given)
    -4	-6
89: O=C(CCc1ccccc1)Nc1cc(N2CCCC2=O)ccc1Cl
    2	1
90: CC(C)c1cccc(N2CC(C(=O)NCc3ccccn3)CC2=O)c1 (stereo not given)
    -3	-4

15 entries out of the list, arranged by SMILES length, descending:
Order of results – NPYLR7 ag	NPYLR7 ag max-min
80: CC(C)CC(C(=O)NCc1cccc(F)c1)N1CC2=C(C1=O)C(c1ccccc1C(F)(F)F)NC(=O)N2C (stereo not given)
    11	25
79: CCCCN(Cc1cccn1Cc1ccc(Br)cc1)C(=O)CN(CCCOC)C(=O)Nc1ccccc1C(F)(F)F
    -3	0
83: Cc1ccc(C(NC(=O)C2CCN(S(=O)(=O)c3ccc4c(c3)OCCCO4)CC2)C2CC2)cc1 (stereo not given)
    15	11
76: O=C(c1ccc([N+](=O)[O-])cc1)N1CCCC(OCc2cccc(OC(F)(F)F)c2)C1 (stereo not given)
    -3	0
78: COc1ccc(NC2=C(Sc3ccc(N)cc3)C(=O)N(Cc3ccco3)C2=O)c(OC)c1
    11	4
77: Cn1c(=O)n(Cc2ccc(F)cc2)c(=O)c2c1nc1n2CCCN1Cc1ccccc1
    6	8
73: CCOc1ccc(-c2ccc(=O)n(CCCC(=O)Nc3cc(C)ccc3C)n2)cc1
    -6	-8
86: O=C(Nc1ccc(F)c(F)c1)N1CCc2ccccc2C1c1ccc(F)cc1 (stereo not given)
    18	8
87: CCN(CC)C(=O)CN1CCC2(CC1)CC(=O)c1cc(OC)ccc1O2
    -9	-15
75: Cc1nc(Nc2cc(Cl)c(N)c(Cl)c2)c2c3c(sc2n1)CCC3
    17	13
90: CC(C)c1cccc(N2CC(C(=O)NCc3ccccn3)CC2=O)c1 (stereo not given)
    -3	-4
74: CCOCCOC(C)C(=O)Nc1n[nH]c(-c2ccc(C)s2)n1 (stereo not given)
    0	6
89: O=C(CCc1ccccc1)Nc1cc(N2CCCC2=O)ccc1Cl
    2	1
82: Cc1noc(-c2ccncc2)c1C(=O)NCc1ccccn1
    4	7
84: S=c1nc(-c2ccc(Cl)cc2)[nH][nH]1
    -6	-6

Later entries
Order of results – NPYLR7 ag	NPYLR7 ag max-min
91: Cc1cc(Cl)c(C)c(S(=O)(=O)NC2(C)CCS(=O)(=O)C2)c1Cl (stereo not given)
    3	1
92: Cc1ccc(N2CCn3c2nn(Cc2cccc(C)c2)c(=O)c3=O)cc1
    7	3
93: Cn1ccsc1=NC(=O)Nc1ccccc1
    3	2
94: Cc1cc(C(F)(F)F)nn1CC(=O)NN1CCN(C)CC1
    20	21
95: Cc1nc(C2CC2)nc(N2CCN(S(=O)(=O)c3ccccc3)CC2)c1F
    6	3
96: CCc1cccc2sc(N(CCCn3ccnc3)C(=O)c3ccc(OC)c(OC)c3)nc12
    -10	-12
97: COCCCNC(=O)C(NC(=O)c1ccc(F)cc1)C1CCN(C(=O)c2cccs2)CC1 (stereo not given)
    -1	0
98: CC(=O)CC1(O)C(=O)Nc2ccc(Br)cc21 (stereo not given)
    -3	-4
99: CCCCN(CC(=O)N1CCOCC1)CC(=O)N(CCc1c[nH]c2ccccc12)Cc1ccc(Cl)c(Cl)c1
    21	23
100: CCN(Cc1ccc(Cl)s1)C(=O)c1cc(=O)[nH]c2ccccc12
    3	5
101: CCSc1nnc(SCC(=O)Nc2ccc(C)c([N+](=O)[O-])c2)s1
    0	-5
102: COCCCn1c(-c2ccccc2)nc2oc3cc(OC)ccc3c(=O)c2c1=O
    6	1

Not all compounds are listed. The share of hits here may be higher or lower than overall.
